# Assay outcomes (PubChem BioAssay)
# Beta cell apopt: beta cell apoptosis inhibition; INS-1E cytokine-induced death, ATP luminescence, 48 h; percent of positive-control rescue, neutral wells zero; protection from apoptosis, % (concentration not given with the values); 300,000 compounds, 0.8% hits;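 active = all replicates at 75% or more, or half of them and the mean; inconclusive = half reach 75% but not the mean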;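 also: 0% = cytokine-treated negative control wells and 100% = positive control rescue; higher means more ATP so stronger rescue from cytokine killing; wells of about 40 µL received 100 nL stock; the first replicate is given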
# Vif A3G: inhibitors of Vif binding to APOBEC3G peptide, primary screen, biochemical, TR-FRET, GST-Vif 1-94, biotin-A3G peptide, dose response retest (AID 1117319); TR-FRET GST-Vif / biotin-A3G peptide binding; higher % means a stronger effect; test concentration not given here; strong numbers were not always called active; inhibition, %, or IC50 in µM where a hit was titrated; 260,000 compounds, 0.57% hits;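 active = above the screen mean plus three standard deviations and confirmed in dose response; inconclusive = results disagree or hit not tested in dose response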;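 also: Vif residues 1-94 fused to GST binding biotinylated APOBEC3G peptide 110-148; 0% = full assay without inhibitor and 100% = GST in place of GST-Vif; retest series ran down from 100 µM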
# RanGTP-Imp inh: disruptors of Ran-importin-beta complex formation – biochemical, FRET, CFP-Ran, YFP-importin-beta, homogeneous, primary screen. cell-free CFP-Ran/YFP-importin-beta FRET ratio. inhibition, % (no concentration beside the values). 300,000 compounds, 1.1% hits. AID 2216;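 active = most replicates above 15%; inconclusive = exactly half above 15%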;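 also: 0% = DMSO wells and 100% = Ran loaded with GDP instead of GTP; wells of about 40 µL received 100 nL stock; the first replicate is given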
# Bfl-1 A1 inh: inhibitors of the anti-apoptotic protein A1, read as caspase activation; AID 2462; 330,000 compounds, 0.066% hits; caspase activation, % (test concentration not listed); MEF A1-2A-BIM cells, Caspase-Glo 3/7 luminescence, 3 h; percent of clofoctol response, vehicle zero;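 active = over half of replicate activation scores above 10%, or exactly half above 10 with the replicate mean above 10; inconclusive = replicate mean below 10 yet half the replicates above 10; inactive = over half of replicates below 10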;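 also: wells of about 30 µL received 50 nL stock; many hits fall short of the cut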
# rRNA inh HTS: inhibits bacterial ribosomal RNA function over humanized ribosomes. E. coli WT GFP vs humanized-ribosome RFP mutants, fluorescence, 24 h; hits give low values; DMSO median 0, no signal -100. GFP signal change (wild-type ribosome), % (test concentration not listed). 350,000 compounds, 1.6% hits. AID 720706;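 active = significant combined selectivity score with lowered wild-type GFP, culture density cut under 30%, mutant RFP and density less affected; inactive = any of these conditions unmet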; also: one replicate is shown; some compounds called inactive have numbers as strong as hits
# T cruzi repl: blocks replication of Trypanosoma cruzi; 300,000 compounds, 1.4% hits; inhibition, % (test concentration not listed); T. cruzi beta-gal in NIH3T3, luminescence, 90 h; AID 1885;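 active = mean inhibition across valid replicates above about 55%, limit read from the data; inconclusive = mean below that limit but half or more replicates reach it; inactive = mean below it, under half of replicates reach it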;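 also: signal also drops with host cell toxicity which is not excluded here; 0% = plate median of DMSO wells and 100% = zero luminescence signal; higher percent means less beta-gal luminescence so fewer parasites; stock transfer was 50 nL into about 50 µL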
# Calb FLC: affects C. albicans growth with fluconazole; C. albicans CaCi-2 (fluconazole-resistant clinical isolate) + fluconazole, Alamar Blue growth, 48 h; 300,000 compounds, 0.57% hits; growth inhibition, % (no concentration beside the values);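 active = most replicates above 75%; inconclusive = exactly half above 75%; inactive = most below 75%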;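 also: all wells also contain fluconazole at 8 µg/ml as a sub-toxic cotreatment; 0% = median of DMSO wells and 100% = median of geldanamycin control wells; wells of about 8 µL received 7.5 nL stock; the first replicate is given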
# MLL AF4-AF9 inh: blocks AF4 peptide binding to human AF9. P42568. AlphaScreen, biotin-AF4 peptide binding to FLAG-AF9. inhibition, % at 10 µM. 350,000 compounds, 0.47% hits. AID 651704;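 active = every replicate reaching a set inhibition limit, whatever the replicate mean, cut at about 25% in these data; inconclusive = mean inhibition reaches that limit but some replicates miss it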;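 also: 0% = plate neutral control median and 100% = total signal loss; the record names both 10 and 1 µM as test concentration; the first replicate is given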
# Target sequence (P42568 whole entry, looked up): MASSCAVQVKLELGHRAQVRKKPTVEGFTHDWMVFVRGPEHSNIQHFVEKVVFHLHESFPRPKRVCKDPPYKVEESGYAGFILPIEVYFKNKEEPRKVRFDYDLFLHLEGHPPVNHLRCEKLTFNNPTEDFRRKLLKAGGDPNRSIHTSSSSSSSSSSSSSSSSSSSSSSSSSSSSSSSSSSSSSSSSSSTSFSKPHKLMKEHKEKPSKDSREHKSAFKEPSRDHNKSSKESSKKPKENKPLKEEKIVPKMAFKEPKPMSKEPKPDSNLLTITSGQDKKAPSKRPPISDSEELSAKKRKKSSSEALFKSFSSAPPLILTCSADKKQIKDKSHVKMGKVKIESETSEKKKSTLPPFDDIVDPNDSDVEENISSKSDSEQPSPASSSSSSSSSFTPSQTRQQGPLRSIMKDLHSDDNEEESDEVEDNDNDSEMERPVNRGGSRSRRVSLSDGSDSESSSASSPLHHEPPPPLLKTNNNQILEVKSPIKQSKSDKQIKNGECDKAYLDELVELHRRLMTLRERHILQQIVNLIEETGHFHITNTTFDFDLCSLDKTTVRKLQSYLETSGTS
# rRNA inh HTS OD600: recorded beside rRNA inh HTS, whose call it bears; OD600 change, %; measured here: OD600 growth;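 optical density of the mix in the first replicate; 0 = DMSO median and -100 = no signal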
# rRNA inh HTS RFP: recorded beside rRNA inh HTS, whose call it bears; RFP signal change, %; measured here: RFP humanized mutant strains;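 first replicate; 0 = DMSO median and -100 = no signal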
# * = called active by the depositor; ? = inconclusive; . = not tested or not shown; & = joins results of further samples. A portion of the library; rates above refer to the full screens.
molecule	Beta cell apopt	T cruzi repl	rRNA inh HTS RFP	Bfl-1 A1 inh	RanGTP-Imp inh	MLL AF4-AF9 inh	rRNA inh HTS OD600	rRNA inh HTS	Calb FLC	Vif A3G
O=C(Cn1cnc2ccccc21)N/N=C/c1ccccc1	-1	-13	-1.8	-0.5	5.3	-7.5	-7	-3	-4	1%
S=c1[nH]ncn1/N=C/c1ccccn1	-4	-6	.	0.8	-4.5	.	.	.	15	-1%
O=C(COC(=O)Cc1ccsc1)NCc1ccccc1	-4	4	.	0.3	-0.8	.	.	.	10	7%
COCCn1c(SCC(=O)Nc2cc(C)on2)nc2cc(Cl)ccc2c1=O	2	.	1.0	-0.3	.	-1.1	13	15	.	78%
Cc1nn(-c2ccccc2)c2[nH]c(=O)c(CNCCN3CCOCC3)cc12	-2	-9	.	-1.2	-5.0	.	.	.	-2	3%
COc1ccccc1CNC(=O)CCCn1c(=O)c2ccccc2n(CC(=O)NC2CCCC2)c1=O	-3	14	.	0.4	-2.0	.	.	.	-3	29%
Cc1ccc(S(=O)(=O)Cc2csc(N)n2)cc1	-3	-5	.	-0.3	?	.	.	.	2	?
O=C(CN1CCOCC1)Nc1ccccc1	-3	-10	2.3	0.2	-1.0	0.9	10	16	4	27%
N#CCC(=O)Nc1ccc(C(=O)OCC(=O)NCc2ccc3c(c2)OCO3)cc1	1	.	21	-0.1	.	-5.2	3	7	.	.
CC(=O)N1c2ccc(S(=O)(=O)N3CCCC(C(=O)Nc4cccc(Cl)c4)C3)cc2CC1C (stereo not given)	6	9	9.2	-0.2	-1.4	-0.2	-12	-4	1	-7%
O=C(Cc1ccccc1)c1ccccc1C(=O)N1CCCCC1	-1	-5	0.1	1.0	2.8	0.4	11	12	-7	-9%
CC1CCC(NC(=O)CNC(=O)c2ccc3ccccc3c2)CC1 (stereo not given)	-3	0	-0.7	0.8	.	-39	0	4	4	-7%
O=C(CCCC(=O)OCC(Cl)=C(Cl)Cl)Nc1ccc(F)cc1	-7	-5	-12	2.4	5.2	-0.6	-36	-27	7	.
N#Cc1ccc(C(=O)OCC(=O)NC2CCCC2)cc1	.	-12	2.9	-0.1	-0.2	-0.1	14	3	5	0%
C/C(=N\NC(=O)c1ccc(C)cc1C)c1ccc2c(c1)Nc1ccccc1S2	5	33	.	0.3	-2.7	.	.	.	14	15%
CCN(CC)C(=O)Cn1cnc2sc(C(=O)N3CCN(c4ccc(F)cc4)CC3)c(C)c2c1=O	.	15	-0.3	-0.1	0.9	-0.1	-10	-4	-24	.
Cc1ccc(N(CC(=O)NC(C)c2ccccc2)S(=O)(=O)c2c(C)noc2C)cc1 (stereo not given)	-6	10	-4.2	-0.8	0.5	0.1	14	-1	-4	.
COc1ccc(-c2nc(CSCC(=O)N3CCc4ccccc43)c(C)o2)cc1OC	9	4	.	-0.2	2.7	.	.	.	-1	-1%
O=C(C1CCCCC1)N1CCC(c2nc3c(nnn3Cc3c(F)cccc3Cl)c(=O)[nH]2)CC1	10	4	.	-0.2	-2.5	.	.	.	16	5%
CC1CC(C)CN(C(=O)C(C)N2CCN(S(=O)(=O)c3ccc(Br)s3)CC2)C1 (stereo not given)	5	.	3.2	2.0	.	2.6	-63	-34	.	.

# (continued)
molecule	Beta cell apopt	T cruzi repl	rRNA inh HTS RFP	Bfl-1 A1 inh	RanGTP-Imp inh	MLL AF4-AF9 inh	rRNA inh HTS OD600	rRNA inh HTS	Calb FLC	Vif A3G
Cc1cc(OC(C)C(=O)N(Cc2ccco2)C2CCS(=O)(=O)C2)cc(C)c1Cl (stereo not given)	3	13	.	0.6	-0.7	.	.	.	-5	.
CC(C)[C@H](NC(=O)c1ccco1)C(=O)OCC(=O)c1ccc(Br)s1	-11	.	3.9	0.9	.	0.1	3	6	.	-26%
Cn1cc(C(=O)c2ccc(Cl)cc2Cl)cc1C(=O)O	-2	-4	.	0.2	5.5	.	.	.	3	-4%
COc1cccc(Cn2cccc(NC(=O)Nc3ccccc3C)c2=O)c1	-6	-5	-3.9	1.6	6.9	-1.6	-14	-12	-9	9%
Cc1ccc(NC(=S)C2=C(O)c3ccccc3N(C)S2(=O)=O)cc1	-6	-4	.	-1.6	-1.5	.	.	.	2	10%
CC1CCCC(C)N1C(=O)CSc1nnc(-c2ccco2)n1C (stereo not given)	3	.	1.8	-0.7	.	-5.0	20	23	.	1%
COc1ccc(N2CC(C(=O)N[C@@H](C)C(=O)N[C@H](CO)c3ccccc3)CC2=O)cc1 (stereo not given in full)	-4	-22	0.1	0.8	0.3	-1.4	4	6	-1	.
COc1cc(/C=C(\C#N)c2nc3ccccc3n2C)cc(OC)c1O	-16	-18	-1.1	1.0	4.2	2.3	-17	-12	-2	?
O=C(CNS(=O)(=O)N1CCOCC1)N/N=C/c1cccnc1	-2	-8	2.3	0.1	-3.8	-1.2	6	10	-2	.
O=C(NCC(=O)N(CC1CCCO1)C(C(=O)NC1CCCCC1)c1ccc(F)cc1)c1ccco1 (stereo not given)	-4	0	.	0.6	2.1	.	.	.	2	-2%
CC(C)n1c(O)c(N=NC(=O)Cc2csc(N3CCOCC3)n2)c2ccccc21	4	20	1.9	0.5	-2.1	7.1	-3	-6	6	10%
Cc1cs/c(=N\N=C\c2cccc([N+](=O)[O-])c2)n1Cc1ccco1	-1	-2	0.1	0.0	4.7	2.4	6	6	7	21%
O=C(CCN1C(=O)S/C(=C\c2ccc(F)cc2)C1=O)Nc1ccc(C(=O)O)c(O)c1	2	-6	-2.6	-8.7	-1.0	-5.2	-10	-3	6	.
c1ccc(CCCN2CCOCC2)cc1	-24	-5	0.1	1.4	-14	0.0	15	9	4	.
N#C[C@H]1[C@H](c2ccccc2)[C@](C#N)(C(=O)c2ccccc2)[C@@H]2C=Cc3ccccc3N21	.	35	.	.	47*	.	.	.	27	0%
COCCN(CC(=O)NC1CCCCC1)C(=O)c1csnn1	0	1	.	0.4	-2.9	.	.	.	4	?
O=C(NC1CCN(Cc2ccccc2)CC1)c1ccc(Cn2c(=S)[nH]c3ccc(N4CCOCC4)cc3c2=O)cc1	.	60*	1.8	-0.3	5.5	-2.3	-14	3	-9	-10%
COc1ccc(CCNC(=O)CNC(=O)c2nn(-c3ccc(OC)c(OC)c3)c(=O)c3ccccc23)cc1OC	4	9	3.3	0.0	-2.5	0.3	3	3	11	.
CC1CCCCC1NC(=O)COC(=O)COc1ccc(Cl)cc1 (stereo not given)	3	-4	.	-1.7	0.4	.	.	.	-7	-2%
COCCn1c(-c2ccsc2)nc2c1c(=O)[nH]c(=O)n2CC(C)C	2	-11	.	0.7	-2.0	.	.	.	1	2%

# The last two entries of the part above open the next one.
molecule	Beta cell apopt	T cruzi repl	rRNA inh HTS RFP	Bfl-1 A1 inh	RanGTP-Imp inh	MLL AF4-AF9 inh	rRNA inh HTS OD600	rRNA inh HTS	Calb FLC	Vif A3G
CC1CCCCC1NC(=O)COC(=O)COc1ccc(Cl)cc1 (stereo not given)	3	-4	.	-1.7	0.4	.	.	.	-7	-2%
COCCn1c(-c2ccsc2)nc2c1c(=O)[nH]c(=O)n2CC(C)C	2	-11	.	0.7	-2.0	.	.	.	1	2%
CCCCNCCCOc1cccc(Cl)c1	4	14	.	0.2	-0.3	.	.	.	-43	3%
O=C(CSCSCC(=O)NCC1CCCO1)NCC1CCCO1 (stereo not given)	2	-7	1.9	0.4	?	-19	9	15	-7	2%
O=C(C1CC(c2ccc(F)cc2)=NO1)N1CCCc2ccccc21 (stereo not given)	-5	1	.	0.4	-4.9	.	.	.	11	-8%
Cc1cc(NC(=O)CSc2nnc(-c3ccccc3F)n2N)no1	-4	.	.	-1.5	.	-0.3	.	.	.	-1%
CC(C)CC(NC(=O)C1CCC(C)CC1)C(=O)NCc1ccco1 (stereo not given)	3	0	-7.9	0.9	-4.0	5.1	-3	2	3	2%
COc1ccc2c(-c3ccc(SC)cc3)c(-c3ccc(S(C)(=O)=O)cc3)sc2c1	4	.	-3.4	0.3	.	6.1	11	5	.	.
COc1cc(Br)c(C(C)NC(=O)c2ccccc2)cc1OC (stereo not given)	9	-6	-3.1	-0.1	7.0	-29	6	11	-21	15%
CC(=O)c1nnn(-c2ccc(Cl)cc2C#N)c1C	.	-16	.	0.5	5.3	-6.9	.	.	16	.
COc1ccc(-n2c(Cn3nnc4ccccc43)n[nH]c2=S)cc1	1	-4	.	-0.5	2.1	.	.	.	-6	?
CC(=O)N/C(N)=N/c1nc(=O)c2ccccc2s1	4	-12	-3.0	-2.4	4.6	-4.8	0	-5	-4	-16%
COc1ccc(/C(O)=C2/C(=O)C(=O)N(CCN(C)C)C2c2cccnc2)cc1OC (stereo not given)	2	-11	0.7	0.3	0.6	-0.9	13	8	49	8%
CC(=O)OCC1=C(C(=O)O)N2C(=O)[C@@H](NC(=O)Cc3cccs3)[C@H]2SC1	0	-1	8.2	0.6	-1.4	-7.4	9	6	.	?
O=C(CCc1nc2ccccc2c(=O)[nH]1)N1CCN(S(=O)(=O)c2cccc([N+](=O)[O-])c2)CC1	-6	4	-1.2	-0.3	1.0	-7.6	10	7	.	4%
COc1cccc(C(CC(=O)NCCN2CCOCC2)NS(=O)(=O)c2ccc(C)cc2)c1OC (stereo not given)	-6	2	.	0.4	-2.1	.	.	.	19	-7%&4%

# Taken from the listing for reference:
molecule	Beta cell apopt	T cruzi repl	rRNA inh HTS RFP	Bfl-1 A1 inh	RanGTP-Imp inh	MLL AF4-AF9 inh	rRNA inh HTS OD600	rRNA inh HTS	Calb FLC	Vif A3G
O=C(Cn1cnc2ccccc21)N/N=C/c1ccccc1	-1	-13	-1.8	-0.5	5.3	-7.5	-7	-3	-4	1%
S=c1[nH]ncn1/N=C/c1ccccn1	-4	-6	.	0.8	-4.5	.	.	.	15	-1%
O=C(COC(=O)Cc1ccsc1)NCc1ccccc1	-4	4	.	0.3	-0.8	.	.	.	10	7%
COCCn1c(SCC(=O)Nc2cc(C)on2)nc2cc(Cl)ccc2c1=O	2	.	1.0	-0.3	.	-1.1	13	15	.	78%
Cc1nn(-c2ccccc2)c2[nH]c(=O)c(CNCCN3CCOCC3)cc12	-2	-9	.	-1.2	-5.0	.	.	.	-2	3%
COc1ccccc1CNC(=O)CCCn1c(=O)c2ccccc2n(CC(=O)NC2CCCC2)c1=O	-3	14	.	0.4	-2.0	.	.	.	-3	29%
Cc1ccc(S(=O)(=O)Cc2csc(N)n2)cc1	-3	-5	.	-0.3	?	.	.	.	2	?
O=C(CN1CCOCC1)Nc1ccccc1	-3	-10	2.3	0.2	-1.0	0.9	10	16	4	27%
